T cruzi inh: T. cruzi replication inhibition | AID 1885 | T. cruzi beta-gal in NIH3T3, luminescence, 90 h | inhibition, % (no concentration beside the values) | hit rate 1.4% among 300,000;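 active = mean inhibition across valid replicates above about 55%, limit read from the data; inconclusive = mean below that limit but half or more replicates reach it; inactive = mean below it, under half of replicates reach it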;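 note: signal also drops with host cell toxicity which is not excluded here; 0% = plate median of DMSO wells and 100% = zero luminescence signal; higher percent means less beta-gal luminescence so fewer parasites; stock transfer was 50 nL into about 50 µL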
Bfl-1 A1 inh: inhibitors of the anti-apoptotic protein A1, read as caspase activation; MEF A1-2A-BIM cells, Caspase-Glo 3/7 luminescence, 3 h; percent of clofoctol response, vehicle zero; caspase activation, % (concentration not given with the values); hit rate 0.066% among 330,000; AID 2462;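 active = over half of replicate activation scores above 10%, or exactly half above 10 with the replicate mean above 10; inconclusive = replicate mean below 10 yet half the replicates above 10; inactive = over half of replicates below 10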;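 note: wells of about 30 µL received 50 nL stock; many hits fall short of the cut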
Beta2AR agonist: agonists of human beta-2 adrenergic receptor inducing internalization; P07550; Am2.2-beta2AR cells, FAP receptor internalization, flow cytometry; reference of the scale not given here; response, % (no concentration beside the values); hit rate 0.43% among 340,000; AID 504454;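 active = response above a set limit, near 3 SD of response in nonfluorescent compounds, cut at about 42% in these data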;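 note: stock transfer was 100 nL into about 11 µL; a reference agonist was the positive control; negative values mostly stem from fluorescent compounds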
Target sequence (P07550 whole entry, looked up): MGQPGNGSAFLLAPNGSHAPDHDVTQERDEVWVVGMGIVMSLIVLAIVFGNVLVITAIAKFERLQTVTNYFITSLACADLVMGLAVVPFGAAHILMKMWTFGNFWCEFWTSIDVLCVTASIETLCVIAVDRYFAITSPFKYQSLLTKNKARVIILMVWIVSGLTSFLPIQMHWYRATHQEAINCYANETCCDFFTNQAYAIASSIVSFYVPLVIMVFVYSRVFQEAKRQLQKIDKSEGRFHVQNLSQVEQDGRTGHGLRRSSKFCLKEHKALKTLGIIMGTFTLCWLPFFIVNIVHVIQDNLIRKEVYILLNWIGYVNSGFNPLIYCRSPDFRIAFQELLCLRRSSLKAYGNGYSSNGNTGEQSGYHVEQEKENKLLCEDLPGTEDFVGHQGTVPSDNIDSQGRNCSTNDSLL
rRNA inh HTS: inhibits bacterial ribosomal RNA function over humanized ribosomes; hit rate 1.6% among 350,000; E. coli WT GFP vs humanized-ribosome RFP mutants, fluorescence, 24 h; hits give low values; DMSO median 0, no signal -100; GFP signal change (wild-type ribosome), % (no concentration beside the values);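 active = significant combined selectivity score with lowered wild-type GFP, culture density cut under 30%, mutant RFP and density less affected; inactive = any of these conditions unmet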; note: one replicate is shown; some compounds called inactive have numbers as strong as hits
Calb FLC: C. albicans growth modulation with fluconazole | C. albicans CaCi-2 (fluconazole-resistant clinical isolate) + fluconazole, Alamar Blue growth, 48 h | hit rate 0.57% among 300,000 | growth inhibition, % (no concentration beside the values);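 active = most replicates above 75%; inconclusive = exactly half above 75%; inactive = most below 75%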;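 note: all wells also contain fluconazole at 8 µg/ml as a sub-toxic cotreatment; 0% = median of DMSO wells and 100% = median of geldanamycin control wells; wells of about 8 µL received 7.5 nL stock; the first replicate is given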
ALR H2O2 inh: blocks human ALR sulfhydryl oxidase activity; P55789; purified ALR, DTT oxidation, H2O2 HRP-luminol luminescence; inhibition, % (concentration not given with the values); hit rate 3.8% among 290,000; AID 485317;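 active = mean and each replicate at 75% or more; inconclusive = only one of the two met; inactive = neither met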;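 note: stock transfer was 7.5 nL into about 7.5 µL; 0% = neutral wells and 100% = wells with inactivated enzyme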
Target sequence (P55789 whole entry, looked up): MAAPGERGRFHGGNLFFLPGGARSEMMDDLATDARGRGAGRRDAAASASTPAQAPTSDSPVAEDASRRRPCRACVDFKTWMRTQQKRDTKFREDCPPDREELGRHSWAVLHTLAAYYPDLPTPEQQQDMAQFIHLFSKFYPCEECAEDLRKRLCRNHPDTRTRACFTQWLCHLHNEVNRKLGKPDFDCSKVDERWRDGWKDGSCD
Beta apoptosis: beta cell apoptosis inhibition; INS-1E cytokine-induced death, ATP luminescence, 48 h; percent of positive-control rescue, neutral wells zero; protection from apoptosis, % (concentration not given with the values); hit rate 0.8% among 300,000;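 active = all replicates at 75% or more, or half of them and the mean; inconclusive = half reach 75% but not the mean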;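 note: 0% = cytokine-treated negative control wells and 100% = positive control rescue; higher means more ATP so stronger rescue from cytokine killing; wells of about 40 µL received 100 nL stock; the first replicate is given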
LANA-H2B inh: blocks KSHV LANA binding to histone H2A/H2B. hit rate 0.6% among 320,000. Q9QR71. cell-free LANA-H2A/H2B peptide, fluorescence polarization. inhibition, % (test concentration not listed); in the data active = inhibition mostly above about 10%, no sharp cut-off; inactive = mostly below about 6.7%;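 note: stock transfer was 7.5 nL into about 10 µL; 0% = median of vehicle wells and 100% = median of positive control wells; one replicate is shown; the record names a cut of 25% in any replicate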
rRNA inh HTS OD600: further read-out of rRNA inh HTS, marked with its call; OD600 change, %; measured here: OD600 growth;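 optical density of the mix in the first replicate; 0 = DMSO median and -100 = no signal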
rRNA inh HTS RFP: recorded beside rRNA inh HTS, whose call it bears; RFP signal change, %; measured here: RFP humanized mutant strains;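 first replicate; 0 = DMSO median and -100 = no signal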
Active calls of the source: *; ? = inconclusive; nt = no result given. An excerpt; count on the stated rates, not on these rows.

Compound,T cruzi inh,Bfl-1 A1 inh,Beta2AR agonist,rRNA inh HTS,rRNA inh HTS OD600,rRNA inh HTS RFP,Calb FLC,ALR H2O2 inh,Beta apoptosis,LANA-H2B inh
CCOC(=O)N1CCN(C(=O)Cc2ccc(C)cc2)CC1,3,-0.1,4,nt,nt,nt,5,3,-3,4.0
O=C(NCc1cccs1)C12CC3CC(CC(C3)C1)C2,-29,0.7,-6,5,10,-1.3,?,-3,-2,5.2
O=C(O)CN1C(=O)/C(=C\C(Br)=C\c2ccccc2)SC1=S,-6,0.6,24,0,-12,14,11,9,6,-7.2
O=C1N[C@@H](Cc2c[nH]c3ccccc23)COC(=O)[C@@H](Cc2ccc(F)cc2)C/C=C\C[C@H]1CC(=O)N(CCO)Cc1ccccc1,nt,0.6,24,4,-4,7.1,nt,3,1,0.0
Nn1c(SCc2ccc(F)cc2)nnc1-c1ccncc1,-35,0.2,-1,14,8,0.1,6,3,-3,-0.8
CCCC(c1nnnn1CC1CCCO1)N1CCN(c2nc3ccccc3s2)CC1 (stereo unspecified),0,-0.5,-3,nt,nt,nt,-4,3,-7,0.1
CCN1CNC(=S)N(c2ccccc2C)C1,nt,0.2,10,13,4,1.6,-2,-7,-8,1.5
O=C(NCCc1c[nH]c2ccccc12)C(F)(F)F,-1,0.6,0,nt,nt,nt,-7,nt,nt,-0.6
CC(C)c1ccc(S(=O)(=O)N2CCC(C(=O)NCC3(N(C)C)CCCCC3)CC2)cc1,20,0.1,-5,-4,-2,3.4,-18,1,5,-0.2
O=C(c1cnn2c(C(F)F)cc(C3CC3)nc12)N1CCOCC1,5,0.7,-1,nt,nt,nt,5,-4,-1,-0.9
COc1nc(Nc2nc3ccccc3c(=O)[nH]2)nc2ccc(C)cc12,58*,0.6,11,16,9,1.7,1,-32,97*,4.8
COc1cc(C(C)=O)ccc1OC(=O)C(C)N1C(=O)c2ccccc2C1=O (stereo unspecified),-3,-0.6,-2,nt,nt,nt,3,18,-8,1.7
CC1CC(=O)N(CC(=O)N2CCCC2)c2ccccc2S1 (stereo unspecified),0,1.8,-5,7,4,1.5,-14,-4,-8,-0.1
CCOc1ccc(Nc2nc(N3CCCCC3)nc(N3CCCCC3)n2)cc1,31,0.1,9,nt,nt,nt,-15,-6,0,-6.1
O=C(c1ccc(Cl)c(S(=O)(=O)N2CCCCCC2)c1)N1CCN(c2ccccc2O)CC1,17,0.0,1,-44*,-35*,-2.2*,-3,-3,-4,0.1
CC1CCN(CCC(=O)Nc2ccc3c(c2)CCC3)CC1,7,0.0,-1,nt,nt,nt,-20,3,nt,1.4
O=c1[nH]c(=O)c2nnc(N/N=C/c3ccccc3F)nc2[nH]1,-10,-0.6,-5,6,-1,-1.9,1,16,nt,1.3
O=C(CCCN1C(=O)c2cccnc2C1=O)Nc1ccc(Br)cc1,-17,0.3,-1,7,5,3.0,-23,-2,-6,-0.4
O=C(COc1ccc(S(=O)(=O)NCc2ccccc2)cc1)NCc1cccnc1,2,nt,2,5,8,0.8,-1,nt,nt,nt
CSCCC(NC(=O)c1ccccc1Cl)C(=O)OCC(=O)N1CCCC1=O (stereo unspecified),1,0.0,-2,1,9,0.2,-2,nt,nt,2.5
CSc1ccccc1NC(=O)c1c(C)noc1C,-21,0.2,5,nt,nt,nt,1,-8,-5,-5.5
COC(=O)C1(Cc2ccc(O)c(CC3OC3(C)C)c2)OC(=O)C(O)=C1c1ccc(O)cc1 (stereo unspecified),-1,1.2,-1,-7,-16,-4.8,-4,98*,-5,-5.4
CC(=O)N=Nc1[nH]c(N)c2ccccc12,-11,0.4,3,0,7,-0.8,3,-4,-5,-1.2
CCOc1cc(/C=C/C(=O)c2ccc(C)cc2)ccc1OCC(=O)N(C)C,-4,2.0,23,4,9,-1.6,0,11,-36,0.2
Cc1ccc(-n2cc(CNCCN3CCOC3=O)c(-c3ccc(F)cc3)n2)cc1,9,0.0,-3,-18*,-2.1*,4.3*,-13,5,-6,0.3
COC(=O)C1=C(C)NC(C)=C(C(=O)OC)C1C(=O)OCC(=O)c1ccc(F)cc1,-6,0.6,-7,4,3,-1.8,7,24,-5,-5.1
COC(=O)C1=C(C)NC(=O)C1(Nc1ccc(Cl)cn1)C(F)(F)F (stereo unspecified),-11,-0.7,2,nt,nt,nt,0,1,nt,-5.9
COc1ccc(CC(=O)NCc2ccccc2)cc1OC,-1,0.0,-4,13,6,8.5,-16,-10,-4,-2.7
Cc1nn(Cc2ccc([N+](=O)[O-])cc2)c(=O)n1-c1cccc(F)c1,-9,-0.3,0,nt,nt,nt,11,1,-4,-1.5
COc1ccc(Cl)cc1NC(=O)Nc1ccccc1C(N)=O,-28,-0.5,-12,6,22,1.2,-36,-13,-5,-3.6
COc1ccc(-c2nnc(SCC(=O)N/N=C/c3ccccc3C(=O)O)n2-c2ccccc2)cc1,-15,0.3,-22,-3,3,0.2,-4,4,-2,-2.1
CC(=O)Nc1ccc(OCC(O)CN2CCCCC2C)cc1 (stereo unspecified),-11,0.5,-3,nt,nt,nt,1,-7,1,-2.5
COC(=O)C1Sc2[nH]c(=O)sc2C(c2ccc(Cl)cc2)C1C(=O)OC (stereo unspecified),0,-0.7,23,-24,-30,-2.7,-12,54,6,1.0
Cc1cccc(CN2C[C@]34CC[C@@H](C[C@@H]3S2(=O)=O)O4)c1,-25,0.1,7,nt,nt,nt,30,-18,-4,1.3
Oc1c(Br)cc(Cl)cc1C=Nc1ccccc1Br,-24,-0.2,4,9,5,2.0,7,28,2,1.5
COc1ccc(O)c(/C=C(\C#N)C(=O)Nc2cccnc2)c1,-18,-0.9,-9,nt,nt,nt,-2,98*,-6,0.4
Cc1cccc(C)c1OCCCN1CCCC1,11,-0.2,-5,nt,nt,nt,-11,nt,-3,-0.7
O=c1c2c(nc3n1CCCCC3)sc1c(O)c(Br)ccc12,13,-7.7,-6,-36,-44,-12,2,8,6,0.0
O=C(CNC(=O)c1ccc(F)cc1)NCc1ccc(Cl)cc1,4,0.2,-4,8,12,4.1,4,-2,-10,2.9
Cc1ccc(NCc2nnc(SC(C)C(=O)N/N=C/c3ccc(C)o3)n2-c2ccccc2)cc1 (stereo unspecified),17,0.6,-1,nt,nt,nt,-6,18,-2,-3.0
COc1cc(C2C(C#N)=C(N)OC3=C2C(=O)CC(C)(C)C3)ccc1OC(=O)N1CCOCC1 (stereo unspecified),-4,0.5,-4,8,10,1.6,-12,nt,1,0.5
CCOC(=O)N1CCN(C(=O)CN(c2ccccc2OC)S(=O)(=O)c2ccc(C)cc2)CC1,8,0.3,0,nt,nt,nt,13,1,-8,0.9
CN1C(=O)C(O)(CC(=O)c2cccs2)c2ccccc21 (stereo unspecified),-7,0.3,12,13,8,2.9,-2,-3,-8,1.6
OC1CCCN(c2c3c(nc4cc(-c5cccc(F)c5)nn24)CCCC3)C1 (stereo unspecified),31,-0.4,-6,-35,-58,5.2,56,-7,-3,-4.0
CC(C)(C)NC(=O)C(c1ccc(O)cc1)N(C(=O)Cn1nnc(-c2ccc(F)cc2)n1)c1ccccc1F (stereo unspecified),50,0.8,4,-13,-15,2.3,-26,-25,-3,-1.6
CC1C(c2ccccc2)=NNc2nc3c(c(=O)n(C)c(=O)n3C)n21 (stereo unspecified),-26,0.4,nt,nt,nt,nt,1,11,-2,2.7
N#CCCn1cc(C(=O)O)c(-c2ccc3ccccc3c2)n1,-1,-0.6,-5,7,6,1.1,-3,-9,-1,-3.5
COCC1CCCN(C(=O)c2ccc(OC3CCN(Cc4ccccn4)CC3)cc2)C1 (stereo unspecified),4,-0.6,8,9,3,-3.6,1,-12,4,3.8
CCN(CC(=O)Nc1ccccc1OC)CC(=O)Nc1sccc1C#N,3,1.1,-3,-9,-4,6.5,-9,-32,-5,-0.9
O=C(NCc1cccnc1)C(=O)Nc1nc(C23CC4CC(CC(C4)C2)C3)cs1,-7,0.3,10,-27*,-5.4*,6.3*,-4,-6,161*,-5.3

Additional structures follow:
Compound,T cruzi inh,Bfl-1 A1 inh,Beta2AR agonist,rRNA inh HTS,rRNA inh HTS OD600,rRNA inh HTS RFP,Calb FLC,ALR H2O2 inh,Beta apoptosis,LANA-H2B inh
O=c1ccc2cc(S(=O)(=O)N3CCN(c4ccc(Cl)cc4)CC3)ccc2o1,3,-1.0,-16,3,9,-1.0,3,nt,6,-0.6
O=C(CN1C(=O)NC2(CCCC2)C1=O)OCc1cc(=O)n2cc(Br)ccc2n1,-19,0.9,-17,7,1,-7.3,-4,-9,-9,0.8
Cc1ccc(NC2CCCN(C(=O)CSc3ccncc3)C2)cc1C (stereo unspecified),56*,0.2,0,-2,4,-1.7,16,98*,-4,-8.8
Cc1csc2ncc(C(=O)Nc3cccc(C(F)(F)F)c3)c(=O)n12,-1,-1.4,-18,2,3,0.7,-1,0,7,1.7
O=C(OCC(=O)c1ccc(Cl)s1)c1cncc(Br)c1,nt,-0.4,-5,6,9,4.2,nt,nt,2,-1.9
C=CCSc1[nH]c(=O)cc(C)c1C(N)=O,-33,-0.4,1,nt,nt,nt,-28,-5,-3,-3.5
CC(C)Oc1ccc(CN2CCC(n3nccc3NC(=O)C3CC3)CC2)cc1,51,0.2,3,12,11,-1.0,-4,-5,-3,-1.4
Cc1ccc(C(=O)N2CCN(S(=O)(=O)c3ccccc3[N+](=O)[O-])CC2)o1,-22,-0.3,-14,3,3,6.9,-11,1,-1,-12
CCC1(CC)NC(=O)N(CC(=O)N2CCN(S(=O)(=O)c3cccc(F)c3)CC2)C1=O,-5,1.3,-3,6,-3,4.4,-14,0,nt,2.2
COc1cc(Cl)ccc1OCc1cc(C(=O)N[C@H]2CCCCNC2=O)no1,0,-1.3,-4,-10,-8,-0.4,2,1,-13,1.8
CCC1CCCCN1C(=O)CCCOc1ccccc1 (stereo unspecified),3,-0.3,-5,nt,nt,nt,2,-4,-4,5.3
CCCCNC(=O)CSc1nnc(NC(C)=O)s1,19,0.8,-2,nt,nt,nt,nt,-1,-9,-0.1
COc1ccc(N(C)C(=O)c2ccc3nc(-c4ccccc4)c(-c4ccccc4)nc3c2)cc1,25,0.2,-9,nt,nt,nt,-2,3,12,0.4
C=CCn1cnc2c(sc3nc(C)cc(C)c32)c1=O,10,-1.8,-6,5,-2,-1.8,0,0,-5,-3.2
COc1cccc(C(=O)Nc2ccccc2)c1,-15,-13,-3,nt,nt,nt,-11,55,-7,6.5
CCNc1nc(NCC)nc(NS(=O)(=O)c2ccc(N)cc2)n1,-5,0.9,0,2,7,-0.7,-5,1,-12,0.7
COCCn1c(SCc2nc3scc(-c4ccc(Cl)cc4)c3c(=O)[nH]2)nnc1-c1cccc(C)c1,-4,1.0,0,nt,nt,nt,8,-13,-1,-4.0
Cc1nc(N2CCN(S(=O)(=O)c3ccc(F)cc3)CC2)c2c(-c3cccs3)csc2n1,32,-1.0,10,-2,-9,-3.3,3,0,-3,-11
O=C(O)CCc1nc2cc(C(F)(F)F)ccc2n(Cc2ccccc2)c1=O,11,-1.6,5,-1,4,-3.2,5,-3,4,1.0

Screens from PubChem BioAssay.
